Screening results from PubChem.
Env fusion inh: inhibitors of HIV-1 Env-driven cell-cell fusion, primary screen, HeLa-JRFL effector, CEM21 target cells, luciferase. inhibition, % at 12.3 µM. actives 1.1% (n = 360,000);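 active = mean replicate inhibition score of at least 50 and every replicate individually at or above 50; inconclusive = only one of the two criteria met; inactive = mean below 50 and not all replicates reaching 50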;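 note: 0% = plate neutral controls and 100% = maraviroc near 300 nM; one replicate is shown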
Rce1 inh: yeast Rce1p protease inhibitors, primary screen, biochemical, fluorescence, cell-free homogeneous; CAAX prenyl protease 2 (Saccharomyces cerevisiae (strain ATCC 204508 / S288c)), Q03530; yeast membranes, quenched prenylated peptide cleavage fluorescence; calls only; actives 0.27% (n = 290,000);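 active = fall in fluorescence gain of 50% or more versus controls, with final raw signal at or below 3038400; inconclusive = same 50% fall but final raw signal above 3038400; inactive = fall in fluorescence gain under 50%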;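 note: plate controls were neutral control wells for no effect and wells lacking membranes for full effect; tested at 10 µM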
Target sequence (Q03530 whole entry, looked up): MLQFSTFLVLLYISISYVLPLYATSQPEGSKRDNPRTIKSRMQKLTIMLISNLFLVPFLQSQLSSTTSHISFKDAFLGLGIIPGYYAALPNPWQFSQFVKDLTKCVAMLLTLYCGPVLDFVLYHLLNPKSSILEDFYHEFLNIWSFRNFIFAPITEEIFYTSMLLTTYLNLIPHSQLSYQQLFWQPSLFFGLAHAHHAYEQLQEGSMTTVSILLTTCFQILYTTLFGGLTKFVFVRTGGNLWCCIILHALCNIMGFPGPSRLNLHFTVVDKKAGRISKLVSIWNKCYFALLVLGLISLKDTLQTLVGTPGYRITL
PABP FP inh: PABP poly(A) RNA binding inhibitors, primary screen, biochemical, fluorescence polarization, uHTS; actives 1% (n = 290,000); Polyadenylate-binding protein 1 (Homo sapiens), P11940; inhibition, % at 35 µM; AID 2014, 2009;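 active = 50% or more with normal probe brightness, or confirmed in later tests; inconclusive = above 50% with abnormal brightness, or retests that disagree; inactive = below 50% or failed in later tests; about a fifth of its hits are not listed in these tables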;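 note: calls also rest on retests at 20 µM and on dose response follow-up; controls were probe without protein and protein plus probe with vehicle; some compounds called inactive have numbers as strong as hits; many hits fall short of the cut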
Target sequence (P11940 whole entry, looked up): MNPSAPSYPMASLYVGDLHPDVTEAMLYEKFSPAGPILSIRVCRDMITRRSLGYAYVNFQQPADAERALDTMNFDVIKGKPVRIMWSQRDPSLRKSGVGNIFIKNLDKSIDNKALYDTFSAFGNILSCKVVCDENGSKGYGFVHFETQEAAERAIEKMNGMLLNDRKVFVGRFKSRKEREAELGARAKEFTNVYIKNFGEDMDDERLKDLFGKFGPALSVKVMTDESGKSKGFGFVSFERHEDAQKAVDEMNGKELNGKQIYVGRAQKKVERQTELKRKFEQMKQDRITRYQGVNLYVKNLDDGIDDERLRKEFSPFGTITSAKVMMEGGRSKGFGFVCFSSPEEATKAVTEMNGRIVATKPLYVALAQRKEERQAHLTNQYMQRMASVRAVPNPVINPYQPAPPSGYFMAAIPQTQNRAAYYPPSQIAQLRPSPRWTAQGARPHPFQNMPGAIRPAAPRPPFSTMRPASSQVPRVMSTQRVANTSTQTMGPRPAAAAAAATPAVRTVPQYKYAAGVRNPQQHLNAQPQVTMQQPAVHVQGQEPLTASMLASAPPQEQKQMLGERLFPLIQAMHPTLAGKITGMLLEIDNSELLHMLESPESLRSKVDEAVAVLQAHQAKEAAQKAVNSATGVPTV
CSC inhib: cancer stem cell viability inhibitors, primary screen, luminescence. inhibition, % at 7.5 µM. cancer stem cell-like cells viability. actives 1.1% (n = 300,000);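 active = mean at 75% or more and at least half the replicates too; inconclusive = mean and replicates disagree; tested in HMLE shEcad cells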;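 note: 0% = median of negative and 100% = median of positive control wells; the first replicate is given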
UUG fidelity: modulators of yeast start codon fidelity, primary screen, whole organism, S. cerevisiae, single point, plate reader. S. cerevisiae UUG-firefly luciferase reporter, luminescence/redox ratio. activity score, % at 18.7 µM. actives 0.13% (n = 350,000). AID 602363, 2012;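 active = replicate mean at a twofold rise or more, about +100% in these data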;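 note: firefly luciferase made from a UUG start codon reports start codon fidelity; reporter light over untreated wells divided by growth signal over untreated wells; some hits fall short of that in this replicate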
MT1-MMP act inh: blockers of MT1-MMP proenzyme processing, primary screen, HT1080 RFP-PRO-GFP cells, GFP/RFP fluorescence. Matrix metalloproteinase-14 (Homo sapiens), P50281. GFP/RFP ratio fluorescence, overnight; percent of plate control window, DMSO zero. GFP/RFP ratio change, % at 20 µM. actives 0.061% (n = 360,000);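 active = GFP/RFP ratio change of at least 30% with cell ATP level not reduced by more than half and red fluorescence within 50% of control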; note: strong numbers were not always called active
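Material: RFP-PRO-GFP reporter HT1080 cells. Dosing: single-point 20 µM compound, 1% DMSO. Controls: DMSO and RFP-L50D-GFP cell wells. Timing: cells overnight before dosing, compound overnight, 37 °C, 5% CO2. Measure: GFP/RFP fluorescence ratio.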
eIF4H inh: human eIF4H binding inhibitors, primary screen, translation initiation inhibitor project, biochemical, uHTS, fluorescence polarization | inhibition, % at 35 µM | eIF4H fluorescence polarization binding assay | actives 0.94% (n = 290,000) | Eukaryotic translation initiation factor 4H (Homo sapiens), Q15056 | AID 2012, 2009;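 active = 50% or more with normal probe brightness, or confirmed in later tests; inconclusive = above 50% with abnormal brightness, or retests that disagree; inactive = below 50% or failed in later tests; about a fifth of its hits are not listed in these tables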;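 note: calls also rest on retests at 20 µM and on dose response follow-up; 0% = protein and probe with vehicle and 100% = probe without protein; strong numbers were not always called active; many hits fall short of the cut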
eIF4H inh retest: recorded beside eIF4H inh, whose call it bears; inhibition, %; compound at 20 µM; confirmation average;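 mean of two retest wells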
PABP FP inh retest: also measured in PABP FP inh; calls as there; inhibition, %; compound at 20 µM; confirmation repeats;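 mean of two retest wells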
MT1-MMP act inh RFP: further read-out of MT1-MMP act inh, marked with its call; RFP signal change, %; measured here: RFP expression control read;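 0 = vehicle wells; hits needed this value within 50% of zero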
The depositor's hits bear a star; i = inactive; u = inconclusive; x = no result given; & = joins results of further samples. Not all compounds are listed (hit frequency here may not be typical).

SMILES	Env fusion inh	Rce1 inh	PABP FP inh	CSC inhib	UUG fidelity	MT1-MMP act inh	MT1-MMP act inh RFP	eIF4H inh	others
CC1CC(C)CN(S(=O)(=O)c2ccc(C(=O)N3CC(C)OC(C)C3)cc2)C1 (stereo not drawn)	x	i	8.0	-5.2	-13.0	0.4	-4.5	11.4
Cc1oc2nc(SCC(=O)N3CCCCC3)nc(N)c2c1C	2.9	i	-18.6	-14.3	x	-0.3	-1.3	2.0
C#CCOCCOCCOCCNc1nc(N2CCN(C(=O)[C@H](CCCCN)n3cc([C@@H](N)CC(C)C)nn3)CC2)nc(N2CCN(C(=O)[C@H](Cc3ccc(O)cc3)n3cc([C@@H](N)CC(C)C)nn3)CC2)n1	x	i	44.7	x	x	x	x	40.9
CC1CCC(NC(=O)c2cc(S(=O)(=O)N3CCCCC3)ccc2N2CCOCC2)CC1 (stereo not drawn)	-1.6	x	x	x	1.6	-3.4	1.7	x
COc1cc(/C=N/NC(=O)Cc2ccc(Br)cc2)cc(OC)c1O	-7.3	i	-1.8	-38.0	-11.6	1.2	0.9	-11.1
COc1ccc(S(=O)(=O)Cc2ccc(C(=O)NC3CC3)o2)cc1	4.7	i	-10.0	x	-3.7	3.5	6.1	2.5
Cc1ccc2c(c1)C1CN(C)CCC1N2C(=O)Nc1ccc(Cl)cc1 (stereo not drawn)	-7.2	x	5.8	x	x	2.7	2.6	1.2
O=C(COc1ccccc1)NCc1ccc2c(c1)OCO2	x	i	0.4	-13.7	x	-2.4	2.9	-13.7
C[C@H]1CN([C@@H](C)CO)C(=O)Cc2cc(NC(=O)Cn3cnnn3)ccc2O[C@H]1CN(C)Cc1ccncc1	-14.7	x	x	x	-12.4&-4.7	0.8	4.3	x
CCn1cc(CN2CCCC(C(=O)Nc3ccc(-c4nc5ccccc5[nH]4)cc3)C2)c(C)n1 (stereo not drawn)	x	x	-10.1	-0.5	-17.7	2.4	-1.2	-8.4
COCCn1c(=NC(C)=O)sc2cc([N+](=O)[O-])ccc21	-15.3	i	-2.9	-1.7	x	1.7	0.1	1.1
COc1ccc(NC(=O)Nc2cc(C)ccn2)cc1	-343.3	x	x	x	-50.0	-1.5	-3.7	x
CCCc1cc(C(N)=O)c(NC(=O)c2ccco2)s1	-41.9	x	9.4	-4.4	-16.3	-1.9	-1.5	-5.9
O=S(=O)(c1ccc2ccccc2c1)N(CC1CO1)c1ccccc1 (stereo not drawn)	3.6	i	10.6	16.0	x	-1.9	-1.5	-2.3
CC(NC(=O)c1cccnc1)c1ccc2c(c1)OCO2 (stereo not drawn)	x	i	5.5	-7.1	-21.0	-1.2	1.3	-5.7
CCOC(=O)N1CCC(NC(=O)CN2C(=O)CSc3ncccc32)CC1	-12.4	i	-10.1	1.3	-5.4	3.7	0.0	-10.9
CCCC(=O)NNC(=O)c1ccoc1C	4.4	i	-5.1	-13.1	x	-1.7	2.9	-6.5
O=C(CC1C(=O)NCCN1Cc1c(F)cccc1Cl)NCCc1ccccn1 (stereo not drawn)	-1.9	i	3.3	-16.7	x	-2.9	3.3	-3.2
CC(C)(C)C(=O)Nc1cc(C(F)(F)F)ccc1-n1ccnc1	1.3	i	-12.1	-0.4	x	-0.7	1.8	9.8
O=C(CCn1nnc2ccccc21)Nc1nnc(-c2ccccc2F)s1	-22.5	i	5.2	-2.1	-17.7	-0.2	0.4	-6.6
Cc1sc(-n2cccc2)c(C(=O)O)c1C	-31.6	i	47.6	-8.8	-4.0	10.1	5.3	29.7
CN(C)c1nc(NNC(=O)c2ccccc2)nc(N(C)C)n1	5.0	x	x	x	-10.9	3.8	6.0	x
O=C1CC(N2CCC(O)(c3ccc(Cl)cc3)CC2)C(=O)N1Cc1ccc(N2CCCC2=O)cc1 (stereo not drawn)	x	i	-2.0	20.9	-43.4	5.2	-6.7	13.3
CCn1c(/C=C2\C(=O)N(C)c3ccccc32)nc2ccccc2c1=O	-49.5	i	-11.5	5.5	-8.3	-2.3	-2.9	-4.0
CC(C)CCC1(C)NC(=O)N(CC(=O)c2ccc[nH]2)C1=O (stereo not drawn)	x	i	x	-10.9	-9.1	-4.7	0.2	x
CCCOc1ccc(Br)cc1/C=N/O	x	i	-7.8	-6.8	x	0.4	0.8	-0.1
COc1cc(OC)c(C(=O)NC23CC4CC(CC(C4)C2)C3)cc1OC	5.4	i	-0.8	42.7	-4.0	1.9	-5.9	45.3
CS(=O)(=O)N(CCC(=O)O)Cc1ccccc1	x	i	-1.1	2.2	-5.5	-0.7	1.6	-10.4
Cc1ccc(-c2nn(-c3ccccc3)cc2/C=C2\SC(=S)N(CCCCCC(=O)O)C2=O)o1	5.0	i	35.4*	x	-21.4	-53.1	-4.1	78.9*	eIF4H inh retest=68.5*;PABP FP inh retest=54.4*
CC(C)(C)OC(=O)N(CCc1ccccc1)Cc1cccc(OCc2cccc(NC(=O)/C=C/c3ccccc3)c2)c1	14.3	x	x	x	-10.4	-0.2	-8.9	x
CC(C)(C)c1cc(C(=O)NCc2ccco2)ccn1	-86.3	i	12.1	-5.6	1.1	13.8	5.8	-9.2
CCOC(=O)C(C)OC(=O)C1=C(C)NC(=O)NC1c1ccc2c(c1)OCO2 (stereo not drawn)	0.1	i	-0.5	-6.4	-26.8	0.8	2.1	5.8
CC(CC(C)C(=O)N1CCOCCN(C(=O)C(C)CC(C)C(=O)O)CCOCC1)C(=O)O (stereo not drawn)	-55.9	i	19.9	-2.1	-3.4	-0.1	1.9	-11.6
C=CCn1c(-c2cc(OC)cc(OC)c2)n[nH]c1=S	x	i	-9.6	-18.5	-12.1	-0.1	11.2	4.4
O=C(Nc1cccc(F)c1)C1CCN(S(=O)(=O)c2cccc3nonc23)CC1	-5.7	x	7.2	-6.9	-9.4	-3.0	-4.5	7.9
Cc1cc(C(F)(F)F)c2c(C)nn(CCc3nn[nH]n3)c2n1	x	i	-1.5	0.8	-9.9	0.3	3.0	-4.5
O=C(NC1CCCCCC1)c1ccc(S(=O)(=O)NCc2ccco2)cc1	i	i	-4.9	3.1	-19.3	7.7	-1.3	-6.8
CC(C)C(=O)Nc1sc2c(c1C#N)CCCCC2	-64.9	i	32.0	-3.7	1.6	-6.8	-3.2	21.5
CCOc1ccc2oc(=O)cc(C)c2c1	x	i	-6.2	x	-13.9	3.1	0.3	4.9
CCCCNC(=O)C1(C)CCCCN1C(=O)c1cc2ccccc2s1 (stereo not drawn)	-2.9	x	x	x	-1.7	1.2	6.5	x

Copied from the entries so far for reference:
SMILES	Env fusion inh	Rce1 inh	PABP FP inh	CSC inhib	UUG fidelity	MT1-MMP act inh	MT1-MMP act inh RFP	eIF4H inh	others
Cc1sc(-n2cccc2)c(C(=O)O)c1C	-31.6	i	47.6	-8.8	-4.0	10.1	5.3	29.7
CN(C)c1nc(NNC(=O)c2ccccc2)nc(N(C)C)n1	5.0	x	x	x	-10.9	3.8	6.0	x
O=C1CC(N2CCC(O)(c3ccc(Cl)cc3)CC2)C(=O)N1Cc1ccc(N2CCCC2=O)cc1 (stereo not drawn)	x	i	-2.0	20.9	-43.4	5.2	-6.7	13.3
CCn1c(/C=C2\C(=O)N(C)c3ccccc32)nc2ccccc2c1=O	-49.5	i	-11.5	5.5	-8.3	-2.3	-2.9	-4.0
CC(C)CCC1(C)NC(=O)N(CC(=O)c2ccc[nH]2)C1=O (stereo not drawn)	x	i	x	-10.9	-9.1	-4.7	0.2	x

(next part)
SMILES	Env fusion inh	Rce1 inh	PABP FP inh	CSC inhib	UUG fidelity	MT1-MMP act inh	MT1-MMP act inh RFP	eIF4H inh	others
CC(NS(=O)(=O)c1ccc2c(c1)C(C)(C)C(=O)N2C)c1ccccc1 (stereo not drawn)	8.3	i	-5.1	x	2.8	1.8	3.2	3.0
Cc1ccc(S(=O)(=O)Nc2ccnc3ccccc23)cc1	-2.9	i	2.1	-15.9	-12.7	5.4	3.2	-4.4
Cc1cc(OC(=O)c2ccc(Cl)cc2Cl)c([N+](=O)[O-])c(=O)[nH]1	18.5	i	-2.6	-7.6	6.9	1.7	2.6	4.4
Cc1ccc(S(=O)(=O)NCCSc2ncccn2)cc1	-21.9	i	-0.1	-5.8	x	-0.6	0.6	1.3
C/C(=N\NC(=O)c1c(Cl)cnn1C)c1cccc(NC(=O)c2ccc(C)cc2)c1	-82.6	i	-11.1	-6.3	-19.3	4.1	0.7	-11.6
CCOc1ccc(-n2c(C)cc(/C=C3/C(=N)N4C(=NC3=O)SN=C4S(C)(=O)=O)c2C)cc1	-7.8	i	-7.7	20.2	x	-1.5	0.0	u
COc1ccc(CN(C)CC(=O)N(C)CC(=O)Nc2ccccc2Br)cc1F	1.1	x	x	-9.1	-4.7	0.2	0.7	x
CCOC(=O)Nc1cc(NC(=O)OCC)ncn1	-3.8	x	x	x	1.4	-3.4	1.8	x
O=C(NCc1ccco1)C1(c2ccc(Br)cc2)CCCC1	7.7	i	-11.0	-2.3	-15.6	4.6	-1.3	-5.8
CSc1nc(NS(=O)(=O)c2cc(Br)ccc2Br)cc(=O)[nH]1	-0.6	i	8.1	-0.2	-11.1	2.9	7.6	-0.1
COc1ccc(Cl)cc1S(=O)(=O)N1CCN=C1Cc1ccccc1	36.2	i	6.4	-20.7	-2.0	1.5	-1.2	8.2
O=C(CCNC(=O)c1ccc([N+](=O)[O-])cc1)Nc1ccc(Cl)c(S(=O)(=O)N2CCOCC2)c1	-0.6	x	x	x	-8.2	4.6	-6.8	x
Cc1ccc(C2=NS(=O)(=O)N(C)C(C(=O)Nc3cc(C)n(CC(=O)N4CCCCC4)n3)=C2)cc1	-15.5	i	x	-3.8	-20.8	-5.2	-6.9	x
CN(C)c1ccc(/C=C2\C(=N)N3C(=NC2=O)Sc2cc(S(C)(=O)=O)ccc23)cc1	x	i	u	8.3	x	x	x	u
CN(CC(=O)Nc1cccc(F)c1)C(=O)c1ccc(N2CCCCC2)c([N+](=O)[O-])c1	x	i	x	-9.1	x	8.0	-15.0	x
COC(=O)c1ccc(NC(=O)COc2coc(CN3CCc4ccccc43)cc2=O)cc1	2.2	i	x	-4.0	-14.0	0.4	1.2	x
O=C(Cn1ncc2c3ccccc3n(Cc3ccccc3F)c2c1=O)NCC1CCCO1 (stereo not drawn)	-5.4	i	1.4	-8.2	8.0	-1.5	-1.6	-8.8
O=C(O)C(Cc1c[nH]c2ccccc12)N1CCS(=O)(=O)CC1 (stereo not drawn)	9.5	i	9.8	-18.5	x	0.9	5.8	-4.6
COc1ccc(N2C(=O)CC(S/C(N)=N/N=C/c3ccnc4ccccc34)C2=O)cc1 (stereo not drawn)	x	i	-3.7	13.1	x	x	x	-0.8
Cc1ccc(C2=NNC(=O)C(c3c[nH]c4ccccc34)C2)cc1 (stereo not drawn)	4.2	i	-10.5	-3.4	x	2.6	-1.0	-0.2
CCN(C(=O)COC(=O)C1=COCCO1)c1ccccc1	7.8	x	x	-13.9	-11.9	-2.1	1.8	x
